Source: PubChem
TRPV1 potentiator: potentiators of human vanilloid receptor 1 (TRPV1). TRPV1-expressing cells, Fluo-8 calcium influx, capsaicin EC20 potentiation; host cell line not named in the record; control for the full effect not named in the record. potentiation, % at 8.33 µM. 320,000 tested, 0.02% active; active means potentiation above 80%; inconclusive means 30% to 80%; inactive means below 30%; note: 0% is about no effect
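TRPV1-expressing cells were cultured overnight at 35.5C and loaded with Fluo-8 calcium dye for 40 to 90 min at room temperature. After a 10 s baseline, compound was added and calcium influx was read kinetically for 3 min (ex 480/em 520 nm).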
TRPML1 ag: agonists of human TRPML1 channel. Q9GZU1. TRPML1-expressing cells, Ca2+ dye fluorescence, FDSS; host cell line not named in the record; reference of the full effect not given here. activation, % (no concentration beside the values). 410,000 tested, 0.12% active. AID 624414; in the data active = activation above about 50%; inconclusive = about 30% to 50%; inactive = below about 30%; note: 0% is about no effect; the text of the record puts the active cut at 80%
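Tetracycline-induced TRPML1-DL cells are seeded and incubated overnight before loading with a no-wash Ca2+ dye and quencher. Agonist activity is taken from the 110 s fluorescence read following compound pin-transfer on an FDSS, before EC80 54-4 challenge.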
Six1-Eya2 blk: Six1/Eya2 interaction inhibition; Q15475+O00167; AlphaScreen GST-Six1/His-Eya2 binding, biochemical; active compounds read low; control for the full effect not named in the record; activity change, % (no concentration beside the values); 360,000 tested, 0.56% active; AID 651725; in the data active = activity change below about -65%; inconclusive = about -30% to -65%; inactive = above about -30%; note: % is set by controls: 0 for no effect and ±100 for the full control effect
Target sequence (O00167 whole entry, looked up): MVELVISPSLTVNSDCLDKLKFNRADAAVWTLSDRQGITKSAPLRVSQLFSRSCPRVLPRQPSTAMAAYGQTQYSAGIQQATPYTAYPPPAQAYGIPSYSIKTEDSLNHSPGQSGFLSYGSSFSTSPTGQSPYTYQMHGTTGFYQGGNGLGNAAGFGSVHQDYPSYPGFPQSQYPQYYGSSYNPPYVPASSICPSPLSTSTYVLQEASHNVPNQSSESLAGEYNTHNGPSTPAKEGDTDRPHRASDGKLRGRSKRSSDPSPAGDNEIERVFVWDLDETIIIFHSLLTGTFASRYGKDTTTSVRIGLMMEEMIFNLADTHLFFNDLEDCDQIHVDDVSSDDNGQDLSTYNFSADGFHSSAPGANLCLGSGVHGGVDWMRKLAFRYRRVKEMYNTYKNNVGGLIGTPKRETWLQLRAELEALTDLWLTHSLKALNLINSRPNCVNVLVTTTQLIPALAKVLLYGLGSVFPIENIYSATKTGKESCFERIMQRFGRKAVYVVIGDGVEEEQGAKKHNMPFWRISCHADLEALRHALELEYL
Target sequence (Q15475 whole entry, looked up): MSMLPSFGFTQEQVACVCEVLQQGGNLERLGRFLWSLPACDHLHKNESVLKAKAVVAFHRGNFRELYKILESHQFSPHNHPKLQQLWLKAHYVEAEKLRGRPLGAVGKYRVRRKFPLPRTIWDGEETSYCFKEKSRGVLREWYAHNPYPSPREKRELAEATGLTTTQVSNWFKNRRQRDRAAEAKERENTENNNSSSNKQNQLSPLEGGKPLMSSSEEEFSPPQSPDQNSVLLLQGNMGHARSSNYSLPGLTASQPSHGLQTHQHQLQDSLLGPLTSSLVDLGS
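Compounds are tested against tagged Six1 and Eya2 proteins bridged by glutathione donor and nickel acceptor beads; after a one-hour incubation at 37 °C without light, AlphaScreen emission is recorded.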
D2 potentiator: positive allosteric modulators of human D2 dopamine receptor; P14416; DiscoveRx D2 beta-arrestin cells, luminescence, 90 min; 100% = 57 uM dopamine signal; potentiation, % (concentration not given with the values); 360,000 tested, 0.23% active; AID 624464; active = potentiation of 50% or more; inconclusive = 30% to 50%; inactive = 30% or less;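 note: compound concentration not given in the record; tested on top of an EC20 dose of dopamine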
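PathHunter beta-arrestin assay in DiscoveRx D2 cells. Compounds were added with an EC20 of dopamine (50 nM final) for 90 min at 37 deg C. Luminescence was read 1 h after detection reagent, with 57 uM dopamine as the EC100 control.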
TRPML1 inh: blocks the human TRPML1 channel | Q9GZU1 | TRPML1-inducible cells, Ca2+ dye fluorescence, FDSS; active compounds read low; inhibition of EC80 agonist-evoked calcium signal | activity change, negative = inhibition, % (concentration not given with the values) | 390,000 tested, 0.02% active | AID 624415; in the data active means activity change below about -50%; inconclusive means about -30% to -50%; inactive means above about -30%;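 note: stimulus is agonist 54-4 at its EC80 concentration; % is set by controls: 0 for no effect and ±100 for the full control effect; the text of the record puts the active cut at -80%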
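Calcium fluorescence in TRPML1-DL cells induced overnight with Tet: a 110 s read after compound pin addition, then a 110 s antagonist read after challenge with 54-4 at 4 uM final (EC80).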
CtBP-E1A inh: blocks the CtBP interaction with E1A; AlphaScreen GST-E1A/His-CtBP binding, 1536-well; active compounds read low; control for the full effect not named in the record; activity change, % (concentration not given with the values); 340,000 tested, 0.49% active; in the data active means activity change below about -65%; inconclusive means about -30% to -65%; inactive means above about -30%; note: % is set by controls: 0 for no effect and ±100 for the full control effect
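In 5 uL wells, 23 nL compound meets equimolar GST-E1A and His-CtBP (5X stock 125 nM each) for 2 h, 37 °C. Beads (5X, 50 ug/mL) then 1 h, 37 °C, dark.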
Starred values were filed as active, the others as inactive; ? = inconclusive; / = no result given; & = joins results of further samples. Compounds were not picked by outcome; any-hit rate near 0.95%.

Order of results: TRPV1 potentiator | TRPML1 ag | Six1-Eya2 blk | D2 potentiator | TRPML1 inh | CtBP-E1A inh
CCN1CCN(CC(=O)Nc2cc(S(=O)(=O)N3CCCCC3)ccc2Cl)CC1
 : / | 0.4 | 7 | -10 | 9 | -1
COC(=O)CN1C(=O)COc2ccc(S(=O)(=O)NCc3ccc(Cl)cc3)cc21
 : 4 | -0.2 | 11 | -21 | 13 | 3
CC(=O)c1nnn(-c2ccc([N+](=O)[O-])cc2)c1C
 : ? | 0.0 | -2 | 3 | 3 | /
CC1(C)CC2CC(C)(CN2S(=O)(=O)c2ccccc2[N+](=O)[O-])C1 (stereo not given)
 : / | -0.1 | -1 | -1 | 11 | -3
O[C@H]1C[C@H](c2ccccc2)N(CC2CCCCC2)C[C@@H]1n1cc(C2CC2)nn1
 : / | 0.0 | -1 | 4 | 0 | 0
CCOC(=O)/C(C#N)=C/N=c1ccc(C)cn1C
 : / | 0.0 | 5 | -5 | -8 | 9
O=C(OC1CCOC1=O)C1CCN(S(=O)(=O)c2ccccc2)CC1 (stereo not given)
 : -2 | -0.6 | 4 | -3 | -2 | 10
CC(C)Cc1nnc(NC(=O)c2cc3c(s2)CCC3)s1
 : 12 | -0.9 | -4 | 0 | 29 | 4
CS(=O)(=O)N1N=C(c2ccco2)CC1c1ccccc1 (stereo not given)
 : 14 | -0.8 | -2 | -9 | 4 | -3
Cc1ccc(S(=O)(=O)N2CCC(C(=O)NCCCOC(C)C)CC2)cc1
 : 16 | -0.2 | 2 | 0 | -6 | 10
COc1ccc(C(=O)c2cc3c(cc2[N+](=O)[O-])OCCO3)cc1
 : 0 | 4.4 | -9 | -4 | 32 | -3
COC(=O)c1cccc(NC(=O)c2ccc3c(c2)C(=O)N(CC2CCCO2)C3=O)c1 (stereo not given)
 : 5 | -0.4 | -5 | 9 | -6 | -2
COc1nc(OCC#N)nc(N(C)C)n1
 : -8 | -0.7 | 1 | -19 | -10 | 0
COc1ccc(C(=O)c2c[nH]c(C(=O)N=CN(C)C)c2)cc1
 : -7 | -0.3 | 16 | -11 | 4 | 0
O=C(Cn1nnc(-c2ccc(N3CCOCC3)cc2)n1)OC1CCCCC1
 : -21 | -1.0 | 19 | -7 | -9 | 0
Cc1cc(OCCOCCN2CCCC2)ccc1C(C)C
 : 0 | -0.8 | 0 | -12 | -3 | 1
O=C(Nc1ccc(F)cc1)C1CCCN(S(=O)(=O)c2ccc(-n3cnnn3)cc2)C1 (stereo not given)
 : 3 | 0.6 | 6 | 0 | -14 | 2
O=C(O)c1cc2nccc(-c3ccco3)n2n1
 : 21 | -0.4 | -30 | -7 | -7 | -22
COc1cccc(C(=O)NCCS(=O)(=O)NCc2cccs2)c1
 : 4 | -0.5 | 12 | 3 | 9 | -15
CCCN1C(=O)c2ccccc2NC1c1ccc(C)cc1 (stereo not given)
 : -19 | 2.4 | 5 | -1 | 10 | -5
O=C(CN(Cc1ccccc1)C(=O)c1cccc([N+](=O)[O-])c1)Nc1c(Cl)cc(Cl)cc1Cl
 : 2 | 5.7 | 0 | 0 | -3 | 6
O=C(C[n+]1cccc(Br)c1)c1ccc(-c2ccccc2)cc1
 : 4 | 0.5&-0.6 | 1 | -3 | 52 | /
CCOC(=O)Cc1c(-c2cccc(Cl)c2)nc2c3ccccc3ccn12
 : / | -0.4 | -4 | / | / | 1
C=CCNC(=S)Nc1ccc2nc(C)c(C)nc2c1
 : 1 | -0.7 | -3 | -8 | 28 | -11
CC(C)[C@H](NC(=O)c1ccccc1F)C(=O)OCC(=O)NC1CC1
 : / | -0.2 | 2 | -22 | 3 | -3
O=C(COc1ccc(Cl)cc1Br)Nc1cccc(S(=O)(=O)N2CCCC2)c1
 : 17 | -0.2 | -6 | -16 | 14 | 3
COc1ccc(-n2ncc3c(N4CCc5ccccc54)ncnc32)cc1
 : 28 | -0.8 | 2 | -9 | 23 | 17
COc1ccc(/C=N/n2c(N)nc3ccccc32)cc1OC
 : 0 | -0.1 | -22 | 16 | -16 | -15
Cc1cc(C)cc(NC(=O)N2CCCN(c3ncccc3[N+](=O)[O-])CC2)c1
 : 1 | 2.1 | -4 | -16 | 13 | -5
CC1(O)N(CCC(=O)Nc2cccc(F)c2)C(=O)OC12CCCCC2 (stereo not given)
 : -7 | 0.0 | 1 | -5 | -2 | -15
c1ccc(-n2cnc3ccccc32)nc1
 : -9 | -0.6 | -11 | 6 | -8 | -2
O=C1Cn2nnc(-c3ccccc3)c2C2c3ccccc3CCN12 (stereo not given)
 : / | -0.7 | 6 | -6 | / | 2
C=CCSc1nnc(-c2cc3c(s2)-c2ccccc2CC3)o1
 : -1 | 2.8 | 159 | 12 | -2 | 83
O=C(c1cc(C2CC2)nn1-c1ccccc1)N1CCN(S(=O)(=O)c2cccc(F)c2)CC1
 : -8 | 2.3 | -2 | -4 | -6 | -5
Cc1cc(=O)oc(C)c1C(=O)NCc1cccnc1
 : -1 | 0.3 | 4 | -1 | 3 | 2
COC(=O)Cn1c(=NC(=O)CSC(C)=O)sc2ccccc21
 : 19 | -0.2 | 1 | -5 | 2 | 6
C1=CCN(c2nc(N3CCOCC3)nc(N3CCCc4ccccc43)n2)CC1
 : / | 1.0 | -5 | -3 | -4 | 4
O=S(=O)(N1CCCCCC1)N1CCN(S(=O)(=O)N2CCCCC2)CC1
 : -8 | -0.1 | 2 | -5 | 8 | 1
CCc1cccc(C)c1NC(=O)CCCN1C(=O)NC(C)(C)C1=O
 : 7 | 4.7 | 4 | -2 | 7 | 1
Cc1ccc(N2CC(C(=O)NCc3nnnn3-c3ccc(C)c(C)c3)CC2=O)cc1 (stereo not given)
 : 8 | 0.4&-0.3 | 0 | -26 | 22&-18 | 1

Copied from the results shown (16 entries):
Order of results: TRPV1 potentiator | TRPML1 ag | Six1-Eya2 blk | D2 potentiator | TRPML1 inh | CtBP-E1A inh
CCOC(=O)Cc1c(-c2cccc(Cl)c2)nc2c3ccccc3ccn12
 : / | -0.4 | -4 | / | / | 1
C=CCNC(=S)Nc1ccc2nc(C)c(C)nc2c1
 : 1 | -0.7 | -3 | -8 | 28 | -11
CC(C)[C@H](NC(=O)c1ccccc1F)C(=O)OCC(=O)NC1CC1
 : / | -0.2 | 2 | -22 | 3 | -3
O=C(COc1ccc(Cl)cc1Br)Nc1cccc(S(=O)(=O)N2CCCC2)c1
 : 17 | -0.2 | -6 | -16 | 14 | 3
COc1ccc(-n2ncc3c(N4CCc5ccccc54)ncnc32)cc1
 : 28 | -0.8 | 2 | -9 | 23 | 17
COc1ccc(/C=N/n2c(N)nc3ccccc32)cc1OC
 : 0 | -0.1 | -22 | 16 | -16 | -15
Cc1cc(C)cc(NC(=O)N2CCCN(c3ncccc3[N+](=O)[O-])CC2)c1
 : 1 | 2.1 | -4 | -16 | 13 | -5
CC1(O)N(CCC(=O)Nc2cccc(F)c2)C(=O)OC12CCCCC2 (stereo not given)
 : -7 | 0.0 | 1 | -5 | -2 | -15
c1ccc(-n2cnc3ccccc32)nc1
 : -9 | -0.6 | -11 | 6 | -8 | -2
O=C1Cn2nnc(-c3ccccc3)c2C2c3ccccc3CCN12 (stereo not given)
 : / | -0.7 | 6 | -6 | / | 2
C=CCSc1nnc(-c2cc3c(s2)-c2ccccc2CC3)o1
 : -1 | 2.8 | 159 | 12 | -2 | 83
O=C(c1cc(C2CC2)nn1-c1ccccc1)N1CCN(S(=O)(=O)c2cccc(F)c2)CC1
 : -8 | 2.3 | -2 | -4 | -6 | -5
Cc1cc(=O)oc(C)c1C(=O)NCc1cccnc1
 : -1 | 0.3 | 4 | -1 | 3 | 2
COC(=O)Cn1c(=NC(=O)CSC(C)=O)sc2ccccc21
 : 19 | -0.2 | 1 | -5 | 2 | 6
C1=CCN(c2nc(N3CCOCC3)nc(N3CCCc4ccccc43)n2)CC1
 : / | 1.0 | -5 | -3 | -4 | 4
O=S(=O)(N1CCCCCC1)N1CCN(S(=O)(=O)N2CCCCC2)CC1
 : -8 | -0.1 | 2 | -5 | 8 | 1

The list goes on:
Order of results: TRPV1 potentiator | TRPML1 ag | Six1-Eya2 blk | D2 potentiator | TRPML1 inh | CtBP-E1A inh
Cc1ccc(S(=O)(=O)Nc2c(C)n(C)n(-c3ccccc3)c2=O)cc1C(=O)NCc1ccccc1
 : 0 | -1.2 | 4 | 6 | -2 | /
Cc1cccc2sc(NNC(=O)c3cc(=O)c4ccccc4o3)nc12
 : 3 | -0.1 | -17 | 2 | -5 | -4
COc1ccc(OCc2nnc(SCC(=O)Nc3cccc(C(C)=O)c3)o2)cc1
 : -5 | 1.8 | 17 | 2 | -27 | 0
CC1CCCC(NC(=O)CSc2ncnc3ccccc23)C1C (stereo not given)
 : / | -0.1 | 3 | -7 | -19 | -16
O=C(CSc1ncnc2ccccc12)N1CCNC1=O
 : / | 0.1 | 2 | -1 | 2 | /
CC1CC(=O)C(C2c3ccccc3CCN2C(=O)CCl)C(=O)C1 (stereo not given)
 : 5 | 0.4 | 8 | -4 | 14 | /
O=C1[C@H]2[C@@H](/C=C/c3ccccc3)N3C(=O)CN(CC4CC4)C(=O)[C@@]3(Cc3ccccc3)[C@H]2C(=O)N1c1ccccc1
 : -11 | -0.6 | 1 | -3 | 10 | 3
O=[N+]([O-])c1ccc(N2CCCC2)nc1
 : 2 | 0.0 | 2 | -4 | 5 | -3
CCOC(=O)C1CCCN(C(=O)Cn2ncc3c([nH]c4ccc(C)cc43)c2=O)C1 (stereo not given)
 : 3 | 2.2&1.8 | 4 | -7 | 8&48 | -9
CCN1CCCC1CNC(=O)CN(C)S(=O)(=O)c1ccc(Cl)cc1 (stereo not given)
 : 0 | 0.5 | -2 | -11 | 20 | 6
COc1cccc(NC(=O)COC(=O)Cn2c(C)csc2=O)c1
 : 0 | 3.0 | 0 | 1 | -9 | 5
NC(=S)N/N=C/c1coc2ccc(Br)cc2c1=O
 : 0 | 0.6 | -7 | -2 | 5 | -5
COc1ccc(-c2nc(C)ncc2-c2ccccc2)c(O)c1
 : -8 | / | -3 | -2 | / | 0
CCCCn1c(CN2C(=O)c3ccccc3C2=O)nc2ccccc2c1=O
 : 1 | -0.6 | 15 | 7 | -19 | -6
CCC(CO)Oc1cc(NCc2ccc(C)cc2)c2ncn(C(C)C)c2c1 (stereo not given)
 : / | -0.5 | -2 | -21 | 11 | -21
Cc1cc(S(=O)(=O)NCc2cccnc2)ccc1-n1cnnn1
 : -24 | -0.7 | -2 | -15 | 0 | 6
CCC(C)NCCOc1cccc(Br)c1 (stereo not given)
 : 14 | -0.3 | 7 | -34 | 6 | -1
O=C(OCC(=O)N1CCCC1=O)C1COc2ccccc2O1 (stereo not given)
 : -1 | 1.4 | 2 | 28 | 13 | /
CN1CCn2cnc(C(=O)NCc3ccc(CNC(=O)OC(C)(C)C)cc3)c2C1=O
 : / | -0.5 | 1 | -3 | -13 | 1
CN(C)CCOC(=O)CCCCCCCCC(=O)OCCN(C)C
 : 4 | -0.4 | 2 | -11 | 13 | 0
CCOC(=O)n1c2ccccc2c(=O)n1CCO
 : / | -0.4 | -1 | 4 | / | 6
CCOc1ccc(S(=O)(=O)N2CCC(C(=O)OC(C)C(=O)N(C)C3CCCCC3)CC2)cc1 (stereo not given)
 : -9 | 1.2 | -5 | -4 | 8 | 5
Fc1ccc(CSc2ncnc3c2ncn3C2CCCCO2)cc1 (stereo not given)
 : / | 2.6 | 5 | -4 | 8 | 5
